# Screens from PubChem.
# Cruzain Triton: blocks cruzain activity in presence of Triton detergent; P25779; Potency, µM, for inactives: max response, negative = inhibition, hits mostly inhibitors; 200,000 compounds, 0.43% hits; purified cruzain, Z-FR-AMC fluorescence, 0.01% Triton;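 also: plate controls were neutral wells for no effect and buffer without enzyme for full effect; nearly all actives have a fitted effect of over 40% in size; top concentration of the series not given in the record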
# Target sequence (P25779 123-467 limits assumed): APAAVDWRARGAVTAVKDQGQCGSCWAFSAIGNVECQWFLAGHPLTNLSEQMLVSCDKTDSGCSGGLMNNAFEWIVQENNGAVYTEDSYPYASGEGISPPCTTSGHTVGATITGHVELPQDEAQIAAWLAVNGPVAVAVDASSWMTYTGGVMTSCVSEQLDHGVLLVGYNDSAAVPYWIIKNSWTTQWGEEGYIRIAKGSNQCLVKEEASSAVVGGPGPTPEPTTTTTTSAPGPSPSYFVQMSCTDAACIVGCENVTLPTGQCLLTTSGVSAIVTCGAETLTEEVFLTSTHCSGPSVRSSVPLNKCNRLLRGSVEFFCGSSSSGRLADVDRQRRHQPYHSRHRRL
#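 Detergent-containing arm of a paired screen for aggregation-based inhibition: 0.01% Triton X-100 present. Cruzain at 1.5 nM cleaved 2 uM Z-FR-AMC at pH 5.5 with 5 mM DTT; AMC fluorescence gain over 60 s measured activity.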
# Cruzain noTriton: inhibitors of Trypanosoma cruzi cruzain without detergent. purified cruzain, Z-FR-AMC fluorescence, no detergent. 200,000 compounds, 2.3% hits. Potency, µM, without a hit: max response, negative = inhibition, usual class: inhibitors;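 also: plate controls were enzyme without inhibitor for no effect and buffer without enzyme for full effect; nearly all actives have a fitted effect of over 40% in size; top concentration of the series not given in the record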
#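 Purified cruzain at 1.5 nM, pre-incubated 15 min with compound at room temperature in 100 mM sodium acetate pH 5.5, 5 mM DTT, 0.00005% Triton X-100. Reaction started with 2 uM Z-FR-AMC; AMC fluorescence increase over 60 s gives rate.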
# Numbers without * were called inactive; ? = inconclusive; & = joins results of further samples. Calls follow the shape of the dose curve; as a rule, active = well fitted curve in the direction sought with a large enough effect; inconclusive = small, poorly fitted or top-dose-only effect, or another doubt; inactive = no such curve, though single readings can be large; an effect the other way counts as inactive or inconclusive. Potency is read from the fitted curve at half-maximal effect. An excerpt, so the mix of outcomes need not match the whole.
item	molecule	Cruzain Triton	Cruzain noTriton
1	CC(C)C[C@@H](CC(=O)N[C@@H](CCC(=O)O)CC(=O)O)NC(=O)[C@@H]1CNCC[C@H]1NC(=O)C[C@H](CCCN)NC(=O)C[C@H](CO)NC(=O)[C@@H]1CCCC[C@H]1N	8.4%	2%
2	CC[C@]1(c2ccccc2)NC(=O)N(C)C1=O	1.0%	-3%
3	C=C(C)C(=O)c1cccs1	4.9%	2%
4	COC(=O)c1ccc(C(NC(=O)OCc2ccccc2)/C(C)=C/[C@@H](C)C(=O)NCCO)cc1 (stereo partly drawn)	0.9%	-5%
5	c1ccsc1	0.5%	8%
6	CC(C)CC(C)Nc1ccc(Nc2ccccc2)cc1 (stereo not drawn)	-1.0%	-21%
7	CC(=O)N1CC=CC1(CC(C)C)C(=O)NCc1ccc(C)o1 (stereo not drawn)	2.5%	-2%
8	CN1[C@@H]2CC[C@H]1CC(O)C2 (stereo partly drawn)	-2.6%	-7%
9	CC(C)C[C@@H](CC(=O)N[C@@H](CCC(=O)O)CC(=O)O)NC(=O)[C@@H]1CNCC[C@H]1NC(=O)C[C@H](CCCN)NC(=O)C[C@H](Cc1ccccc1)NC(=O)[C@@H]1CNCC[C@H]1N	2.5%	16%
10	CCCCC[C@H](O)/C=C/C=C\C/C=C\C=C\[C@@H](O)CCCC(=O)O	4.9%	-5%
11	Nc1c(O)cccc1C(=O)C[C@@H](N)C(=O)O	-2.1%	-2%
12	Nc1ccc(Cl)cc1Cl	2.1%	-10%
13	COc1ccc2c(c1)N(C[C@@H](C)CN(C)C)c1ccccc1S2	-1.6%	-5%
14	CCC#N	2.7%	-2%
15	CC1OC(OCC2OC(Oc3c(-c4ccc(O)c(O)c4)oc4cc(O)cc(O)c4c3=O)C(O)C(O)C2O)C(O)C(O)C1O (stereo not drawn)	-1.3%	-7%
16	O=C(O)c1ccc(C(=O)O)cc1	4.0%	-3%
17	C=Cc1c(C)c2cc3nc(cc4[nH]c(cc5nc(cc1[nH]2)C(C)=C5CCC(=O)O)c(CCC(=O)OC)c4C)[C@@]1(C)C3=CC=C(C(=O)OC)[C@H]1C(=O)OC (tested in a mixture with another compound)	-16%	?
18	CCN(CC)CCCn1c(-c2ccccc2)nc2c(N(CCOC)CCOC)nc(C)nc21	-7.2%	0%
19	COCCNc1nc(C)nc2c1nc(-c1ccccc1)n2CC1CCN(C)CC1	-3.5%	-5%
20	CN1CCc2cc3c(cc2[C@@H]1[C@@H]1OC(=O)c2c1ccc1c2OCO1)OCO3	-1.4%	-6%

# Single records, as listed above.
# Listed for `Nc1c(O)cccc1C(=O)C[C@@H](N)C(=O)O` = Cruzain Triton = -2.1%; Cruzain noTriton = -2%
# Listed for `Nc1ccc(Cl)cc1Cl` = Cruzain Triton = 2.1%; Cruzain noTriton = -10%

# Carrying on.
item	molecule	Cruzain Triton	Cruzain noTriton
21	CCC1=C2CC[C@H]3C(=O)N(CC)C(=O)[C@H]3[C@H]2[C@@]2(Cc3ccccc3)C(=O)N(CC3CC3)C(=O)N2C1=O	0.6%	-4%
22	CC/C=C/C#N	2.7%	4%
23	Cc1nc(N2CCOCC2)c2nc(-c3ccccc3)n(CCN(C)C)c2n1	-10%	0%
24	CCC/C=C(\CCC)C(NP(=O)(c1ccccc1)c1ccccc1)c1ccc(-c2ccccc2)cc1 (stereo not drawn)	3.8%	-25%
25	COC(=O)[C@H]1C[C@@H]1[C@H](NC(=O)Oc1ccc(F)cc1)c1ccccc1	-2.9%	1%
26	CCCCC/C=C\C[C@H](O)/C=C/C=C\C/C=C\CCCC(=O)O	3.4%	-2%
27	Cc1n[nH]c(=O)[nH]c1=O	6.0%	5%
28	CCc1ccc(C(=O)NN(C(=O)c2cc(C)cc(C)c2)C(C)(C)C)cc1	-5.2%	-5%
29	CC1CC[C@@]2(NC1)OC1CC3C4CC[C@@H]5CC(O)CC[C@@]5(C)C4CC[C@]3(C)C1C2C (stereo partly drawn)	-4.3%	-9%
30	CCCC[C@@H]1C[C@H]1C(NC(=O)c1cccs1)c1ccc(-c2ccccc2)cc1 (stereo partly drawn)	5.9%	-20%
31	OB(O)c1cc2ccccc2o1	-2.0%	-3%
32	CC(=O)N1CC=CC1(CC(C)C)C(=O)NCC1CC1 (stereo not drawn)	1.8%	-3%
33	ClC(Cl)c1ccccc1	1.5%	10%
34	c1ccc2c(c1)CCCC2	0.6%	0%
35	CCCCC(CC)CN (stereo not drawn)	-1.9%&2.8%	4%&2%
36	CCN(CC)C(=O)N[C@@H]1C[C@H]2c3cccc4[nH]cc(c34)C[C@@H]2N(C)C1	4.6%&-1.0%	-12%&-5%
37	CC1OC(OCC2OC(Oc3c(-c4ccc(OCCO)c(OCCO)c4)oc4cc(OCCO)cc(O)c4c3=O)C(O)C(O)C2O)[C@@H](O)C(O)C1O (stereo partly drawn)	-2.9%	-2%
38	CN(C)c1ccc(N=Nc2ccccc2)cc1	-8.1%	-13%
39	CCCCCC1=C2CNC(CC(C)C)(C(=O)OC)C=C2C(C)C1=O (stereo not drawn)	-5.8%	2%
40	Cc1nc(NC2CCCCC2)c2nc(-c3ccccc3)n(CCN3CCCC3)c2n1	-1.2%	-4%
41	CC(C)=CCOc1ccc(/C=C/C(=O)c2ccc(OCC=C(C)C)cc2OCC(=O)O)cc1	20µM*	?
42	CC(C)(O/N=C(\C(=O)N[C@@H]1C(=O)N2C(C(=O)[O-])=C(C[n+]3ccccc3)CS[C@@H]12)c1csc(N)n1)C(=O)O	-2.8%	1%
43	CO[C@H]1[C@H](O[C@H]2O[C@@H](C)[C@@H](O[C@@H]3C[C@](C)(O)[C@H](O)[C@H](C)O3)[C@@H](N(C)C)[C@@H]2O)[C@@H](CC=O)C[C@@H](C)[C@@H](O[C@H]2CC[C@H](N(C)C)[C@H](C)O2)/C=C\C=C/C[C@@H](C)OC(=O)C[C@H]1O	-2.2%	-12%
44	NCCC[C@@H](CC(=O)N[C@@H]1CCNC[C@H]1C(=O)N[C@H](CC(=O)N[C@@H](CCC(=O)O)CC(=O)O)Cc1ccccc1)NC(=O)C[C@H](Cc1c[nH]c2ccccc12)NC(=O)[C@@H]1CNCC[C@H]1N	0.6%	-2%
45	c1cc(OCC2CO2)cc(OCC2CO2)c1 (stereo not drawn)	4.3%	-6%
46	CCCCC/C=C\C/C=C\C/C=C\CCCCC(=O)NCC(=O)O	2.0%	-3%
47	CCC/C=C(\CCC)C(NS(=O)(=O)c1ccc(-c2ccccc2)cc1)c1ccc(C(=O)OC)cc1 (stereo not drawn)	1.8%	?
48	NC(Cc1c[nH]c2ccccc12)C(=O)NCC(=O)O (stereo not drawn)	3.7%	10%
49	C=CCC(C)(O)/C=C/c1ccccc1 (stereo not drawn)	4.2%	-7%
50	CC(O)C(=O)O (stereo not drawn)	-0.7%	4%

# A draw from above in order of length of the SMILES, ascending.
item	molecule	Cruzain Triton	Cruzain noTriton
14	CCC#N	2.7%	-2%
33	ClC(Cl)c1ccccc1	1.5%	10%
3	C=C(C)C(=O)c1cccs1	4.9%	2%
27	Cc1n[nH]c(=O)[nH]c1=O	6.0%	5%
16	O=C(O)c1ccc(C(=O)O)cc1	4.0%	-3%
6	CC(C)CC(C)Nc1ccc(Nc2ccccc2)cc1 (stereo not drawn)	-1.0%	-21%
11	Nc1c(O)cccc1C(=O)C[C@@H](N)C(=O)O	-2.1%	-2%
48	NC(Cc1c[nH]c2ccccc12)C(=O)NCC(=O)O (stereo not drawn)	3.7%	10%
7	CC(=O)N1CC=CC1(CC(C)C)C(=O)NCc1ccc(C)o1 (stereo not drawn)	2.5%	-2%
13	COc1ccc2c(c1)N(C[C@@H](C)CN(C)C)c1ccccc1S2	-1.6%	-5%
19	COCCNc1nc(C)nc2c1nc(-c1ccccc1)n2CC1CCN(C)CC1	-3.5%	-5%
40	Cc1nc(NC2CCCCC2)c2nc(-c3ccccc3)n(CCN3CCCC3)c2n1	-1.2%	-4%
10	CCCCC[C@H](O)/C=C/C=C\C/C=C\C=C\[C@@H](O)CCCC(=O)O	4.9%	-5%
24	CCC/C=C(\CCC)C(NP(=O)(c1ccccc1)c1ccccc1)c1ccc(-c2ccccc2)cc1 (stereo not drawn)	3.8%	-25%
47	CCC/C=C(\CCC)C(NS(=O)(=O)c1ccc(-c2ccccc2)cc1)c1ccc(C(=O)OC)cc1 (stereo not drawn)	1.8%	?
29	CC1CC[C@@]2(NC1)OC1CC3C4CC[C@@H]5CC(O)CC[C@@]5(C)C4CC[C@]3(C)C1C2C (stereo partly drawn)	-4.3%	-9%
42	CC(C)(O/N=C(\C(=O)N[C@@H]1C(=O)N2C(C(=O)[O-])=C(C[n+]3ccccc3)CS[C@@H]12)c1csc(N)n1)C(=O)O	-2.8%	1%
9	CC(C)C[C@@H](CC(=O)N[C@@H](CCC(=O)O)CC(=O)O)NC(=O)[C@@H]1CNCC[C@H]1NC(=O)C[C@H](CCCN)NC(=O)C[C@H](Cc1ccccc1)NC(=O)[C@@H]1CNCC[C@H]1N	2.5%	16%

# Remaining list, next part:
item	molecule	Cruzain Triton	Cruzain noTriton
51	CCOC(=O)C1C/C(=C\C(C)=O)c2cccc(C(F)(F)F)c2O1 (stereo not drawn)	-4.7%	6%
52	O=Cc1ccccc1	6.5%	2%
53	COCCNC(=O)[C@H](C)/C=C/C(NC(=O)OCc1ccccc1)c1ccc(C(=O)OC)cc1 (stereo partly drawn)	-1.2%	?
54	COC(=O)[C@@]1(Cc2ccccc2)[C@H]2c3cc(C(=O)N(C)C)n(Cc4ccc(OC)c(OC)c4)c3C[C@H]2CN1C(=O)c1ccccc1	-7.5%	?
55	Oc1cc(Cl)ccc1Cl	-0.2%	-5%
56	CCCCC#N	5.1%	-3%
57	CCC1(CC)C(=O)NC(=O)NC1=O	4.8%	1%
58	COc1cc2oc(-c3ccccc3)cc(=O)c2cc1O	-1.9%	5%
59	C[C@]12C=CC(=O)C=C1CC[C@@H]1[C@@H]2CC[C@@]2(C)[C@H]1CC[C@]2(C)O	4.2%	-3%
60	Clc1cccc(Cl)c1	6.1%	-2%
61	O=C1CC(c2ccc3c(c2)OCO3)c2ccc(O)cc2O1 (stereo not drawn)	2.9%	-3%
62	CCOC(=O)C(C(=O)c1ccccc1)[C@H](CCc1ccccc1)NC(=O)OC (stereo partly drawn)	-0.5%	2%
63	COC(=O)[C@@]1(Cc2ccc(F)cc2)[C@H]2c3cc(C(=O)N(C)C)n(CCc4ccc(O)c(O)c4)c3C[C@H]2CN1C(=O)c1ccccc1	-7.2%	?
64	COc1ccc2[nH]c(-c3ccccc3)cc(=O)c2c1	-2.8%	-5%
65	NC(=O)N/N=C\c1ccc([N+](=O)[O-])o1	-7.1%	1%
66	COC(=O)CC1Oc2cc3oc4c(c3cc2O1)C(=O)CC(C)(C)C4 (stereo not drawn)	-3.4%	-2%
67	Cc1cccc(C2=NN(c3ccccc3)[C@H](CO)[C@H]2C)c1	-1.6%	35µM*
68	CCCCC(=O)OC1CCC2C3CCc4cc(O)ccc4C3CC[C@]12C (stereo partly drawn)	-1.7%	-14%
69	Cc1nc(N2CCOCC2)c2nc(-c3ccccc3)n(CCN3CCOCC3)c2n1	-0.6%	-1%
70	C[C@@H](C(=O)NCc1cccc2ccccc12)[C@H]1C[C@]1(C)[C@H](NC(=O)OCc1ccccc1)c1ccccc1	-7.3%	-2%
71	CCCCC/C=C\C[C@@H]1O[C@H]1/C=C/C(O)C/C=C\CCCC(=O)O (stereo partly drawn)	3.5%	-5%
72	CCCCCCCCCCCCCCCCCCO	1.3%	-6%
73	Cc1ccc2[nH]c(-c3ccc(F)cc3F)cc(=O)c2c1	3.3%	-3%
74	CN[C@@H](C)[C@H]1CC[C@@H](N)[C@@H](O[C@@H]2[C@@H](O)[C@@H](O[C@H]3OC[C@@](C)(O)[C@@H](NC)[C@@H]3O)[C@H](N)C[C@@H]2N)O1 (tested in a mixture with another compound)	1.3%	-9%
75	CCC/C=C(\CCC)C(NS(=O)(=O)c1ccccc1)c1ccc(C(F)(F)F)cc1 (stereo not drawn)	-3.2%	-20%
76	CC(C)(C)C(=O)OCOC(=O)[C@@H]1N2C(=O)[C@@H](NC(=O)[C@H](N)c3ccccc3)[C@H]2SC1(C)C	-6.5%	-13%
77	ClCCCl	3.1%	9%
78	C[C@H]1CC[C@@H]2[C@@H](C)[C@H]3[C@H](C[C@H]4[C@@H]5CC=C6CC(O[C@@H]7O[C@H](CO)[C@H](O)[C@H](O[C@@H]8O[C@H](CO)[C@@H](O)[C@H](O)[C@H]8O)[C@H]7O[C@H]7O[C@@H](C)[C@H](O)[C@@H](O)[C@H]7O)CC[C@]6(C)[C@H]5CC[C@]34C)N2C1 (stereo partly drawn)	-4.1%	?
79	CCCc1cc2c(n1CCO)C(C)C1CN(C(=O)c3ccccc3)C(C)(C(=O)OC)C21 (stereo not drawn)	0.0%	?
80	CN(C)c1ccc(N=NS(=O)(=O)O)cc1	-11%	-12%
81	CN(C)C(=O)Cl	1.3%	-1%
82	CCCC=O	4.2%	-5%
83	CCN1CCCC1Cn1c(-c2ccccc2)nc2c(NCCOC)nc(C)nc21 (stereo not drawn)	-11%	-7%
